Screens as filed in PubChem.
ugtP null kill – kills S. aureus RN4220 lacking UgtP; S. aureus RN4220 ugtP deletion, OD600 growth, 16 h; some inactives read as strong as hits; growth inhibition, % (concentration not given with the values); hit rate 0.54% among 330,000;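 active means z-score under -3 and OD600 up to 0.15 on both plates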;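 further: plate controls were untreated wells for no effect and antibiotic for full effect; wells of about 80 µL received 100 nL stock; the first replicate is given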
BJeLR viability – BJeLR cell viability loss | BJeLR (HRASV12) viability, CellTiter-Glo ATP luminescence, 48 h; reference of the scale not given here | inhibition, % (no concentration beside the values) | hit rate 0.17% among 300,000 | AID 1554;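 active means replicate mean above 50%; inconclusive means above 50% but judged a plate artefact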;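 further: 50 nL library stock added to about 25 µL; numbers are from one replicate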
Mtb hypoxia rep – Mtb hypoxia fluorescent reporter inhibition; AID 1159583; M. tuberculosis hypoxia-regulated fluorescent reporter, fluorescence; hit rate 0.1% among 300,000; fluorescence inhibition, % (concentration not given with the values);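 active means 35 to 45% if threefold the growth effect, above 45% if 1.5-fold the growth effect; inactive means the rest, general growth blockers included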;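 further: wells of about 50 µL received 100 nL stock; 0% = vehicle wells and 100% = reference inhibitor wells; whole bacteria with a GFP reporter of the hypoxia response; strong numbers were not always called active; many hits fall short of the cut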
Sa RN4220 lethal – kills Staphylococcus aureus RN4220; S. aureus RN4220 growth, OD600, 16 h; inhibition, % (test concentration not listed); hit rate 0.33% among 330,000; AID 1259311;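 active means z-score of -3 or lower and OD600 up to 0.18 on both plates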;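 further: plate controls were untreated cells for no effect and reference antibiotic for full effect; stock transfer was 100 nL into about 80 µL; one replicate is shown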
Autofluor counter – compound fluorescence in toxin protease inhibitor counterscreen. compound autofluorescence counterscreen, microsphere flow cytometry; active compounds read high. fluorescence intensity (concentration not given with the values). hit rate 3.1% among 360,000;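 active means at least 3 SD above the mean of all compounds, about 16000 in these data; inconclusive means too few beads counted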;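 further: 100 nL of 1 mM stock went into each well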
PrP 5UTR inh – suppresses PrP 5' UTR mRNA reporter expression | cell-based PrP 5' UTR mRNA reporter, plate reader | AID 488862 | hit rate 0.35% among 340,000 | inhibition, % (test concentration not listed);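 active means every replicate at 50% or more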;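 further: 0 = median of the neutral control wells; tested in H4 reporter cells; numbers are from one replicate; inactives centre near -14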
Mtb hypoxia rep growth – recorded beside Mtb hypoxia rep, whose call it bears; growth inhibition, %; measured here: M. tuberculosis growth (absorbance);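 0% = vehicle and 100% = reference antibiotic; read after six days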
An asterisk follows results filed as active; ? = inconclusive; / = no result given; & = joins results of further samples.

SMILES	ugtP null kill	BJeLR viability	Mtb hypoxia rep	Mtb hypoxia rep growth	Sa RN4220 lethal	Autofluor counter	PrP 5UTR inh
COC(=O)c1ccc(C(NC(=O)OCc2ccccc2)C(F)=CC(C)C(=O)O)cc1 (configuration not stated)	-1	/	17	14	3.1	/	/
C1CC2OC2CC1C1CO1 (configuration not stated)	7	/	10	13	2.0	5493	-15
CS(=O)(=O)N(CC(=O)N1CCOCC1)Cc1ccccc1	13	2	1	-1	1.0	8257	-14
CN(C(=O)CC1C(=O)NCCN1Cc1cccc(C(F)(F)F)c1)C1CCOCC1 (configuration not stated)	5	-5	-5	1	0.8	5152	-2
CN(C)C(=O)c1nc(C#N)c(N(C)C)o1	8	7	9	4	2.4	7516	-12
Cc1c(CC(=O)O)c(=O)oc2cc3occ(-c4ccc(F)cc4)c3cc12	18	-1	6	-5	2.2	3599	-3
O=C(CCC1CCN(Cc2ccc(Cl)cc2)CC1)NC1CC1	-2	5	19	2	0.4	4268	-2
COc1ccc(N2CCN(C(=O)c3cc4c(=O)n(Cc5ccccc5)ccc4nc3C)CC2)cc1	8	4	0	-7	-2.8	6130	-9
CCc1ccc2[nH]c(C(=O)N(C)c3ccc(F)cc3F)cc2c1	-6	2	16	7	2.1	5206	-9
CCC(C)NC(=O)c1cn(CC)c2cc(N3CCN(C)CC3)c(F)cc2c1=O (configuration not stated)	39	3	10	6	13	5326	/
COc1ccccc1N1CCN(c2cc(=O)n(-c3ccc(Br)cc3)c(=O)[nH]2)CC1	2	/	0	4	6.1	21225*	-34
O=C1c2ccccc2S(=O)(=O)N1Cc1nnc(-c2ccccc2Br)o1	13	-1	/	/	12	2115	5
O=C(NC(Cc1c[nH]c2ccccc12)C(=O)O)C(=Cc1ccco1)NC(=O)c1ccccc1 (configuration not stated)	6	/	-2	-2	6.6	/	/
O=C(OCC(=O)N1CCOCC1)c1cc(=O)[nH]c2ccccc12	3	/	2	2	-3.0	2943	0
COC(=O)C1=C(O)C2(C(=O)O)CC(C(=O)OC)=C(O)C(C(=O)O)(C1)C2	1	12	9	3	2.3	4264	-17
COCCNC(=O)c1c(N)n(CCC2=CCCCC2)c2nc3ccccc3nc12	-6	-1	4	5	-0.1	5015	-9
CC(=O)c1ccc(OCCCC(=O)N2CCN(S(=O)(=O)c3cccs3)CC2)cc1	10	3	6	4	6.0	4733	-8
COc1ccc(C(=O)NCCSCc2ccco2)cc1OC	-4	0	-26	-48	5.5	7182	-25
O=C(CCS(=O)(=O)c1ccccc1)Nc1ccc(S(=O)(=O)Nc2nccs2)cc1	3	/	10	20	2.2	3008	-12
CC(=O)c1cc(F)c(N2CCN(c3ccc([N+](=O)[O-])cc3F)CC2)cc1C	-3	5	4	2	0.6	20270*	-9
CCOC(=O)c1oc2cc(C)cc(C)c2c1C	6	-7	1	5	10.0	6072	-26
O=C(Nc1cnn(Cc2ccc(Cl)cc2)c1)c1cccs1	-9	-4	6	21	-0.5	5618	-20
Cc1cccc(NC(=S)NCc2cccs2)c1C	-3	0	/	/	0.4	4115	-8
O=C1CC(C(=O)N2CCN(c3ccc(F)cc3)CC2)CN1CCc1ccccc1 (configuration not stated)	3	-6	-1	-1	1.9	5631	-13
C(=N\Nc1nc2ccccc2s1)/c1ccco1	/	-5	/	/	/	7900	-51
O=C(NC(C(=O)c1ccccc1)n1c(=O)cc[nH]c1=S)c1ccccc1 (configuration not stated)	3	-6	3	0	5.0	8222	-46
Cc1ccccc1-n1ncc2c(SCC(=O)NC3CCCC3)ncnc21	2	7	-9	5	-1.9	5597	-5
CCOC(=O)[C@]12Cc3c(cc(OC)c(OC)c3OC)C1N(Cc1ccccc1)C(=O)c1ccccc12 (some centres not stated)	14	/	13	8	6.1	/	/
CCCCc1ncc(CN2CCC(CC3CCCCO3)(C(=O)OCC)CC2)[nH]1 (configuration not stated)	4	5	-2	11	0.1	5367	-11
O=C(N/N=C/c1ccc(OC(=O)c2cccc(F)c2)cc1)c1cccnc1	/	3	/	/	/	3712	-6

Ordered by SMILES length (largest number first): some entries from above
SMILES	ugtP null kill	BJeLR viability	Mtb hypoxia rep	Mtb hypoxia rep growth	Sa RN4220 lethal	Autofluor counter	PrP 5UTR inh
O=C(NC(Cc1c[nH]c2ccccc12)C(=O)O)C(=Cc1ccco1)NC(=O)c1ccccc1 (configuration not stated)	6	/	-2	-2	6.6	/	/
CC(=O)c1cc(F)c(N2CCN(c3ccc([N+](=O)[O-])cc3F)CC2)cc1C	-3	5	4	2	0.6	20270*	-9
O=C(CCS(=O)(=O)c1ccccc1)Nc1ccc(S(=O)(=O)Nc2nccs2)cc1	3	/	10	20	2.2	3008	-12
CCC(C)NC(=O)c1cn(CC)c2cc(N3CCN(C)CC3)c(F)cc2c1=O (configuration not stated)	39	3	10	6	13	5326	/
Cc1c(CC(=O)O)c(=O)oc2cc3occ(-c4ccc(F)cc4)c3cc12	18	-1	6	-5	2.2	3599	-3
CCCCc1ncc(CN2CCC(CC3CCCCO3)(C(=O)OCC)CC2)[nH]1 (configuration not stated)	4	5	-2	11	0.1	5367	-11
COCCNC(=O)c1c(N)n(CCC2=CCCCC2)c2nc3ccccc3nc12	-6	-1	4	5	-0.1	5015	-9
O=C1c2ccccc2S(=O)(=O)N1Cc1nnc(-c2ccccc2Br)o1	13	-1	/	/	12	2115	5
CCc1ccc2[nH]c(C(=O)N(C)c3ccc(F)cc3F)cc2c1	-6	2	16	7	2.1	5206	-9
CS(=O)(=O)N(CC(=O)N1CCOCC1)Cc1ccccc1	13	2	1	-1	1.0	8257	-14
C(=N\Nc1nc2ccccc2s1)/c1ccco1	/	-5	/	/	/	7900	-51
Cc1cccc(NC(=S)NCc2cccs2)c1C	-3	0	/	/	0.4	4115	-8
C1CC2OC2CC1C1CO1 (configuration not stated)	7	/	10	13	2.0	5493	-15

(continued)
SMILES	ugtP null kill	BJeLR viability	Mtb hypoxia rep	Mtb hypoxia rep growth	Sa RN4220 lethal	Autofluor counter	PrP 5UTR inh
O=C(NNC(=O)c1cc(Cl)ccc1O)c1cccs1	2	1	12	6	20	3832	-39
C/C(=C\C(=O)c1ccc(Br)cc1)N1CCCCC1	2	-3	4	2	7.9	9567	-4
Cc1ccc(NC(=O)c2nc[nH]c2C(=O)NCCN(CCNC(=O)c2[nH]cnc2C(=O)Nc2ccc(C)cc2)CCNC(=O)c2[nH]cnc2C(=O)Nc2ccc(C)cc2)cc1	0	/	8	1	-4.1	4114	-12
O=C(CN1CCN(S(=O)(=O)c2ccc(Cl)cc2)CC1)NC1CC1	-4	-2	1	13	3.2	?	-2
O=C(Oc1ccccc1)N1CCOCC1	1	-8	13	-1	5.5	3851	-25
Cc1csc(NC(=O)[C@@H](NC(=O)c2ccccc2)C(C)C)n1	0	6	7	1	2.9	2483	-10
CCOc1ccc2[nH]c(=O)c(CN(CC3COCCO3)C(=O)c3ccco3)cc2c1 (configuration not stated)	1	5	5	11	5.1	3609	5
CCN(CC(=O)Nc1ccc2c(c1)OCCO2)C(=O)c1ccccc1Br	-2	/	-2	-8	2.1	8472	-13
O=C(CSc1ncn[nH]1)Nc1ccc(Cl)c(S(=O)(=O)N2CCOCC2)c1	-4	6	11	10	3.3	4158	12
C=CCNC(=O)c1cc(C(=O)C(C)c2ncc(C(F)(F)F)cc2Cl)c[nH]1 (configuration not stated)	9	9	9	-1	1.7	2258	-12
CCc1ccc(OCC(=O)NC(=S)Nc2ccc(Br)c(C)n2)cc1	10	0	-3	3	-1.1	2005	-16
Cc1cccc(NC(=O)COC(=O)c2nn(C)c(=O)c3ccccc23)c1C	-7	/	6	2	2.3	3503	-24
COC(=O)c1cccc(NC(=O)CSc2nnc(C3CC3)n2C)c1	-3	2	9	2	2.9	3533	-18
CCc1cc(=O)oc2cc(C)cc(OCC(=O)NC(Cc3ccc(Cl)cc3)C(=O)O)c12 (configuration not stated)	-9	-14	/	/	3.5	5145	-33
CCCCOc1cccc(-c2nnc(NC(=O)CSc3ccc(C)cc3)s2)c1	13	5	6	2	1.4	2204	-10
CC(=O)c1ccc(Nc2ccc(-c3ccccc3C)nn2)cc1	-4	16	-5	6	-0.3	12470	-78
CC(C)(C)N1C(=O)Cc2c1nc(N)c1c(N)nc(N3CCCCC3CO)c(C#N)c21 (configuration not stated)	8	5	10	9	12	2601	-55
Cc1ccccc1-c1cc(C(=O)NCc2ccc3c(c2)OCO3)n(CC2CC(c3cccnc3)=NO2)n1 (configuration not stated)	2	/	17	8	2.3	3260	3
Cc1cccc(NC(=O)CN2CCC(C(=O)c3ccc4c(c3)OCCO4)CC2)c1	4	2	-1	1	3.8	3710	-14
Fc1ccc(CNC(=S)Nc2ccc(Cl)cc2)cc1	-31	-4	5	-2	-26	2895	-14
O=C1CC2(CCN(C(=O)c3ccc(F)c(F)c3)CC2)Oc2ccccc21	-5	-11	-10	4	-1.2	?	-16
O=C(NC1CCCCC1)N1CCC(n2cnc3ccccc32)CC1	0	12	7	11	2.1	9518	-9
COCCN1Cc2cccc(C(=O)Nc3c(C)cc(C)cc3C)c2C1=O	7	8	/	/	3.9	2937	9
CN(C(=O)c1cccc(NC(=O)Cc2cccc([N+](=O)[O-])c2)c1)C1CCC1	0	/	8	13	2.4	4988	-4
Cc1nn(Cc2ccccc2Cl)c(C)c1C(=O)OCC(=O)NC1CCCC(C)C1C (configuration not stated)	-15	-8	5	4	-4.5	2564	-21
COC(=O)c1cc(C(=O)N2CCN(c3cccc(Cl)c3)CC2)cc([N+](=O)[O-])c1	11	25	24	3	-8.1	4472	62*
COC(=O)Cc1[nH]c(=S)[nH]c1C(=O)OC	-1	1	3	2	-1.8	4538	-8
N#Cc1c(N=Cc2ccc(O)cc2O)sc2c1C1CCN2CC1	2	/	3	-7	3.5	/	/
CC(=O)/C(C[N+]1(C)CCCCC1)=N\O	/	-10	/	/	/	2492	-14
O=C(Nc1ccccc1)N(C1=NCCCCS1)c1ccccc1	-2	-4	3	1	-9.3	3277	-20
N#C/C(=C/c1ccc(Br)s1)C(=O)NCCc1c[nH]c2ccccc12	2	-2	1	-2	34	2720	-10
COc1ccc(NC(=O)c2ccc3c(=O)n(-c4ccc(OC)cc4OC)c(=S)[nH]c3c2)cc1	2	/	-13	9	10	4335	-5
Fc1cccc(F)c1-n1c(CN2CCCCC2)csc1=S	8	9	16	-3	6.9	2065	-4
Cn1ccsc1=NC(=O)c1cc(S(=O)(=O)N2CCOCC2)ccc1F	1	-11	10	-4	2.2	6123	-11
O=S(=O)(N(Cc1ccccc1)C(CO)Cc1ccccc1)N(Cc1ccccc1)C(CO)Cc1ccccc1 (configuration not stated)	3&5	/	6&-3	-2&7	4.7&3.6	/	/
CCN1CCCC1CNC(=O)C(=O)NC(C)c1ccccc1 (configuration not stated)	5	-3	-5	1	8.7	4399	-12
O=C(COC(=O)/C=C/c1ccc(OC(F)F)cc1)Nc1ccc(N2CCOCC2)cc1	6	1	4	14	2.9	5580	-6
C=CCN1C=C2C(=O)C(C)(OC(=O)C3CCCC3)C(=O)C=C2C=C1c1ccsc1 (configuration not stated)	-2	6	6	17	-2.3	2827	-2
